CSC inhib: cancer stem cell viability inhibitors, primary screen, luminescence; 300,000 compounds, 1.1% hits; cancer stem cell-like cells viability; inhibition, % at 7.5 µM;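 active means mean at 75% or more and at least half the replicates too; inconclusive means mean and replicates disagree; tested in HMLE shEcad cells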;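 further: 0% = median of negative and 100% = median of positive control wells; the first replicate is given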
MT1-MMP act inh: blockers of MT1-MMP proenzyme processing, primary screen, HT1080 RFP-PRO-GFP cells, GFP/RFP fluorescence; GFP/RFP ratio fluorescence, overnight; percent of plate control window, DMSO zero; GFP/RFP ratio change, % at 20 µM; 360,000 compounds, 0.061% hits; AID 651647, 2012;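 active means GFP/RFP ratio change of at least 30% with cell ATP level not reduced by more than half and red fluorescence within 50% of control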; further: strong numbers were not always called active
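Material: RFP-PRO-GFP reporter HT1080 cells. Dosing: single-point 20 µM compound, 1% DMSO. Controls: DMSO and RFP-L50D-GFP cell wells. Timing: cells overnight before dosing, compound overnight, 37 °C, 5% CO2. Measure: GFP/RFP fluorescence ratio.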
Env fusion inh: inhibitors of HIV-1 Env-driven cell-cell fusion, primary screen, HeLa-JRFL effector, CEM21 target cells, luciferase; 360,000 compounds, 1.1% hits; inhibition, % at 12.3 µM;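 active means mean replicate inhibition score of at least 50 and every replicate individually at or above 50; inconclusive means only one of the two criteria met; inactive means mean below 50 and not all replicates reaching 50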;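 further: 0% = plate neutral controls and 100% = maraviroc near 300 nM; one replicate is shown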
Yeast UUG start: modulators of yeast start codon fidelity, primary screen, whole organism, S. cerevisiae, single point, plate reader. 350,000 compounds, 0.13% hits. AID 602363, 2012. S. cerevisiae UUG-firefly luciferase reporter, luminescence/redox ratio. activity score, % at 18.7 µM;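 active means replicate mean at a twofold rise or more, about +100% in these data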;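 further: firefly luciferase made from a UUG start codon reports start codon fidelity; reporter light over untreated wells divided by growth signal over untreated wells; some hits fall short of that in this replicate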
PABP FP inh: PABP poly(A) RNA binding inhibitors, primary screen, biochemical, fluorescence polarization, uHTS; Polyadenylate-binding protein 1 (Homo sapiens), P11940; inhibition, % at 35 µM; 290,000 compounds, 1% hits; AID 2014, 2009;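 active means 50% or more with normal probe brightness, or confirmed in later tests; inconclusive means above 50% with abnormal brightness, or retests that disagree; inactive means below 50% or failed in later tests; about a fifth of its hits are not listed in these tables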;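 further: calls also rest on retests at 20 µM and on dose response follow-up; controls were probe without protein and protein plus probe with vehicle; some compounds called inactive have numbers as strong as hits; many hits fall short of the cut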
Target sequence (P11940 whole entry, looked up): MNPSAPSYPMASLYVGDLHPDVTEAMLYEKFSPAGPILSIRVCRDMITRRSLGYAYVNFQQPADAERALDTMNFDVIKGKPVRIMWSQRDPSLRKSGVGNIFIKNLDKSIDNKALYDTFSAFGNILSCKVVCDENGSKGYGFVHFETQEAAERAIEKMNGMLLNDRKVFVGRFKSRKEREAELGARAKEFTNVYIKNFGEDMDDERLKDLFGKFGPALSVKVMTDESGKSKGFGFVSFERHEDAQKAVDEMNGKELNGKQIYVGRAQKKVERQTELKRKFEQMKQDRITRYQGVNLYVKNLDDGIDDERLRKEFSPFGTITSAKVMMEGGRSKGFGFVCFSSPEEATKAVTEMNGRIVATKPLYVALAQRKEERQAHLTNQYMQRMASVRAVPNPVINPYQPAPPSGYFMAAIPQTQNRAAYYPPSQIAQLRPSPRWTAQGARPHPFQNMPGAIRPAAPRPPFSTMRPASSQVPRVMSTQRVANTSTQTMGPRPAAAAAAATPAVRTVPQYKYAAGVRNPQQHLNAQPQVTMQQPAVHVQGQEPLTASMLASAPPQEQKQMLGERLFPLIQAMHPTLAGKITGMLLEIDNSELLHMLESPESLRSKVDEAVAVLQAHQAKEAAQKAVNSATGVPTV
Rce1 inhib: yeast Rce1p protease inhibitors, primary screen, biochemical, fluorescence, cell-free homogeneous | CAAX prenyl protease 2 (Saccharomyces cerevisiae (strain ATCC 204508 / S288c)), Q03530 | yeast membranes, quenched prenylated peptide cleavage fluorescence | calls only | 290,000 compounds, 0.27% hits | AID 2563, 2010;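 active means fall in fluorescence gain of 50% or more versus controls, with final raw signal at or below 3038400; inconclusive means same 50% fall but final raw signal above 3038400; inactive means fall in fluorescence gain under 50%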;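 further: plate controls were neutral control wells for no effect and wells lacking membranes for full effect; tested at 10 µM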
eIF4H FP inh: human eIF4H binding inhibitors, primary screen, translation initiation inhibitor project, biochemical, uHTS, fluorescence polarization; Eukaryotic translation initiation factor 4H (Homo sapiens), Q15056; eIF4H fluorescence polarization binding assay; inhibition, % at 35 µM; 290,000 compounds, 0.94% hits; AID 2012, 2009;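 active means 50% or more with normal probe brightness, or confirmed in later tests; inconclusive means above 50% with abnormal brightness, or retests that disagree; inactive means below 50% or failed in later tests; about a fifth of its hits are not listed in these tables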;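 further: calls also rest on retests at 20 µM and on dose response follow-up; 0% = protein and probe with vehicle and 100% = probe without protein; strong numbers were not always called active; many hits fall short of the cut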
MT1-MMP act inh RFP: further read-out of MT1-MMP act inh, marked with its call; RFP signal change, %; measured here: RFP expression control read;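 0 = vehicle wells; hits needed this value within 50% of zero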
* = called active by the depositor; i = inactive; ? = inconclusive; · = not tested or not shown; & = joins results of further samples.

SMILES	CSC inhib	MT1-MMP act inh	MT1-MMP act inh RFP	Env fusion inh	Yeast UUG start	PABP FP inh	Rce1 inhib	eIF4H FP inh
C=CCSC1=N/C(=C\c2cccnc2)C(=O)N1c1ccc(OC)cc1	16	-5	-9	2	·	-4	i	1
O=C(Nc1cccnc1)c1ccc([N+](=O)[O-])s1	13	10	-16	7	-1	·	·	·
N#Cc1c(C(F)(F)F)cc(=O)[nH]c1SCC(=O)O	·	1	5	i	-13	0	i	-6
CCn1ccc(C(=O)NC2C(=O)N3C(C(=O)O)=C(C)CSC23)n1 (stereo not given)	13	1	2	·	-34	-5	i	-2
CSc1nc2c(c(=O)[nH]1)CCCC2	-32	-5	3	·	-19	2	i	2
Nc1ccc2nc(-c3ccccc3)cnc2c1	13	-40	-2	-125	-33	·	i	·
CCN1C(=O)C2(C(C#N)=C(N)Oc3c2c(C)nn3-c2ccccc2)c2ccccc21 (stereo not given)	0	7	5	·	4	-11	i	-8
Cc1oc(-c2cccc(Cl)c2)nc1CN1CCC(C(=O)NC2CC2)CC1	-9	2	7	-16	-8	1	i	-4
C[C@@H]1CN([C@H](C)CO)C(=O)CCCn2nncc2CO[C@@H]1CN(C)S(=O)(=O)c1ccccc1	·	1	7	-36	20&11	·	·	·
COc1ccc2oc(C(=O)OCC(=O)N(C)C3CCCCC3)c(C)c2c1	-5	3	-4	3	1	·	i	·
CC1CCN(C(=O)c2ccccc2NC(=O)c2cccc(S(=O)(=O)N3CCOCC3)c2)CC1	·	5	5	·	4	-11	·	3
Cc1ccc(C)c(S(=O)(=O)N2CCN(CC(=O)Nc3sccc3C#N)CC2)c1	55	-1	1	14	·	15	i	4
C[C@H]1C=C(C(=O)NCc2ccccc2)O[C@@H](OCc2ccc(CO)cc2)C1	-11	0	-1	-12	-10	0	i	-4
COc1cc(CN2CCN(c3ccc(C)cc3)CC2)cc([N+](=O)[O-])c1O	-1	·	·	·	·	-6	i	-5
CC(C)C[C@H]1CNC(=S)N1C[C@H]1CCCN1C[C@H](Cc1ccccc1)N1C[C@H](CC(C)C)N(CCc2ccccc2)C1=S	·	-1	-14	6	-7	·	·	·
N=C1C(c2nc3ccccc3s2)=C(O)CN1NC(=O)c1ccco1	0	16	11	6	-12	-2	i	-8
CS(=O)(=O)NCc1nnc(SCc2ccc(C(F)(F)F)cc2)o1	-6	-3	-3	-11	-15	9	i	-16
OCc1ccccc1-c1ccc2nncn2c1	·	2	4	-14	-14	·	·	·
COc1cccc([C@@H]2CC=C(C(=O)O)[C@H](c3ccc(F)cc3)N2S(=O)(=O)c2ccc(C)cc2)c1	-5	-1	-2	-5	12	·	·	·
C[C@H]1CN([C@@H](C)CO)C(=O)c2cc(Br)cnc2O[C@@H]1CN(C)C(=O)NC1CCCCC1	·	4	6	i	4&-6	·	·	·
CCN(CC)CCNC(=O)C1CCC(=O)N1CCc1ccccc1 (stereo not given)	7	1	7	·	-14	-4	i	10
CCOC(=O)/C=C1\SCC(=O)N1CC(=O)Nc1ccc2c(c1)CCC2	-13	-9	-1	9	-11	-10	i	-17
CCc1cccc(NC(=O)c2ccc(Cn3c(=O)[nH]c4ccsc4c3=O)cc2)c1	-2	3	-1	-9	-1	12	i	3
CCOc1ccc(N(C(C)C(=O)N2CCCC2)S(C)(=O)=O)cc1 (stereo not given)	-16	-1	3	-14	-14	2	i	3
O=c1[nH]c(/C=C/c2ccccc2F)nc2ccccc12	72	2	-8	i	-9	9	i	27
C/C=C\C=C/C(=O)Nc1cccc(C2=NOC3(C2)C[C@@H](C(N)=O)N(C(=O)/C=C/CC)C3)c1 (stereo not given in full)	-23	3	0	·	-6	4	i	-5
COc1ccc(CNc2nc3ccccc3n2Cc2ccccc2)cc1OC	1	2	-6	·	-11	-9	i	3
Cc1cc(Nc2ccccc2)n(-c2nc3ccccc3[nH]2)n1	-16	-7	-6	·	-4	3	i	8
Cc1ccc(C(=O)OC2CCOC2=O)cc1NC(=O)c1ccco1 (stereo not given)	-25	-1	-2	·	-7	-1	i	0
COc1cc2sc(-c3ccc(S(C)(=O)=O)cc3)c(-c3ccc4c(c3)OCO4)c2cc1OC	22	-7	-7	8	-28	·	·	·
C=CCn1c(SCC(=O)Nc2ncc(Cc3ccc(C)c(Cl)c3)s2)nnc1-c1ccncc1	2	-2	-8	·	-3	-2	i	-9
Cc1ccc(C(C)C)c(OCCCCN2CCNCC2)c1	48	0	2	-362	-12	9	·	9
C=CCNC(=O)C1CCN(c2cnccn2)CC1	-16	-1	-2	-1	·	0	i	6
CCCCSc1nc2c(cnn2-c2ccc(F)cc2)c(=O)[nH]1	21	0	-3	8	-5	-8	i	4
CCN(CC1CCCO1)C(=O)C1CCN(C2CCN(Cc3ccccc3C)CC2)CC1 (stereo not given)	15	3	-2	20	-2	-1	i	-2
O=C(NCc1cccnc1)C(=O)N/N=C/c1ccccc1[N+](=O)[O-]	-1	2	-3	-6	-12	6	i	-2
CCOc1oc(-c2ccc(OC)cc2)nc1C(F)(F)F	0	1	0	-42	-22	4	i	-3
CN(C)c1ccnc(-n2cccc2/C=N/OCc2ccccc2)c1C#N	4	-1	2	·	1	3	i	-3
O=C(Nc1ccc2nc(-c3ccccc3)[nH]c2c1)c1ccco1	-9	8	5	-88	-22	8	i	-7
COc1cc(C(=O)NC(=S)N2CCCCCC2)cc(OC)c1OC	-9	5	7	-5	·	4	i	-6
O=C(NNc1nc2ccccc2nc1C(F)(F)F)c1ccccc1	-9	1	2	·	-19	-1	i	-2
O=C1NC(=O)C2C1C(c1cccs1)NN2Cc1ccccc1 (stereo not given)	-6	-2	-3	-9	-4	18	i	9
COc1ccc([C@H]2CC(=O)C=C(c3ccc(C)cc3)C2)cc1	-5	0	-2	-7	-8	·	·	·
O=C(O)c1cccc(NS(=O)(=O)c2ccc3c4c(cccc24)C(=O)N3)c1	-15	-3	0	16	-10	28	i	18
COc1ccc(NC(=O)Cn2nnc(-c3ccc(CN4CCOCC4)cc3)n2)c(OC)c1	-14	-1	-1	-40	5	4	i	0
CC(=O)c1ccccc1NS(=O)(=O)c1cccc2nsnc12	·	-3	-1	1	-14	6	i	49
Cc1ccc(NC(=O)CSCC(=O)Nc2cc(C(F)(F)F)ccc2N2CCOCC2)cc1	-7	-6	-6	·	·	·	i	·
Cc1ccc(NC(=O)COC(=O)[C@H](C)NC(N)=O)c(C)c1	-2	-3	-1	6	-13	6	i	0
CC(C)NC(=O)Cn1nnc(-c2ccccc2)c1COc1ccc2ccccc2c1	·	0	-2	-20	0	·	·	·
COc1ccc(CN2C(=O)C(Cc3ccccc3)Nc3ncnc(N4CCCCC4)c32)cc1 (stereo not given)	5	-6	-3	·	2	·	i	·
Cc1ccc(S(=O)(=O)N2CCC(C(=O)N[C@H](C(=O)NCC3CCCO3)C(C)C)CC2)cc1 (stereo not given in full)	-2	2	-1	-14	18	0	i	-2
CCN(Cc1ccccc1)C(=O)C1CCN(S(=O)(=O)c2ccc3c(c2)OCCO3)CC1	-20	1	2	-35	16	3	i	-8
CN(CC(=O)NCCc1ccccc1)Cc1ccco1	1	-3	1	-13	-18	-2	i	-8
CN(C)c1ccc(CN2CCCCC2)cc1	-22	3	4	·	-7	4	i	2
CCOC(=O)c1c(NC(=O)COC(=O)/C=C/c2ccccc2)sc(C(=O)NC)c1C	-6	-4	-3	-3	-13	·	·	·
Cc1ccc(S(=O)(=O)N(C)C)cc1NC(=O)C1CCN(C(=O)Nc2ccccc2)CC1	·	3	0	-41	-11	·	·	·
CC(C)NC(=O)NC(=O)COC(=O)c1ccc(OC(F)(F)F)cc1	-12	2	2	2	-7	-9	i	-6
COc1ccc(N=Cc2sc(O)c3ccccc23)cc1	7	-282	-2	-356	-11	7	i	?
Cc1ccc(-c2nnn(CC(=O)N(Cc3cccs3)C(C(=O)NCC3CCCO3)c3ccco3)n2)o1 (stereo not given)	-14	1	8	-52	·	0	i	48
O=C1c2ccccc2NC(c2ccc(-c3cccc(F)c3)o2)N1O (stereo not given)	19	3	-2	-151	-19	·	·	·
The results go on:
SMILES	CSC inhib	MT1-MMP act inh	MT1-MMP act inh RFP	Env fusion inh	Yeast UUG start	PABP FP inh	Rce1 inhib	eIF4H FP inh
COc1ccc(Nc2oc(-c3ccccc3Cl)nc2C#N)cc1	52	-6	-4	-19	-9	-4	i	-16
O=C1CSC(=S)N1/N=C/c1ccc(C(F)(F)F)cc1	·	-2	5	-5	1	0	i	14
COc1ccccc1NC(=O)c1ccc(Br)c(S(=O)(=O)N2CCCC2)c1	-9	7	-8	7	-18	-2	·	-8
CCN(C(=O)COC(=O)c1c2c(nc3ccccc13)/C(=C/c1ccccc1)CC(C)C2)C1CCS(=O)(=O)C1 (stereo not given)	1	-9	-13	·	-11	5	i	-7
Cc1cnc(C(=O)Nc2ccc(C)c(S(=O)(=O)N(C)C)c2)cn1	9	-3	-5	·	-3	11	i	9
CCN(CC)CCNC(=O)c1cc(S(C)(=O)=O)ccc1OC	·	-1	2	9	-1	6	i	-1
Cc1ccc(C2=NCCn3c2c2ccc(C(F)(F)F)cc2[n+]3[O-])cc1	-16	4	4	·	6	·	i	·
COc1ccc(Cc2nnc(NC(=O)c3ccccc3)s2)cc1OC	2	5	-3	1	-14	-1	i	-4
C/C(=N\NC(=O)CCc1c[nH]c2ccccc12)c1cccc([N+](=O)[O-])c1	11	3	2	-23	·	9	i	-8
Cc1cc2oc(=O)cc(CN3CCC(C)CC3)c2c(C)c1Cl	-2	-2	-2	-27	-19	-1	·	0
Cc1ccc(Cn2c(=O)c3cccnc3n(CC(=O)Nc3cccc(C(F)(F)F)c3)c2=O)cc1	41	-6	-7	-6	·	-13	i	-7
O=C(Nc1ncn[nH]1)c1cccc(F)c1	6	1	5	4	-12	·	·	·
CC1(C)Cc2c(C#N)c(OCC(=O)c3ccccc3)nc(-c3ccoc3)c2CO1	-1	5	0	-1	-21	-2	i	2
O=C(CSc1nc2[nH]ncc2c(=O)[nH]1)NCc1ccccc1Cl	-13	8	2	14	-1	4	i	-2
CC(=O)Nc1ccc(/C=N/NC(=O)CNC(=O)c2ccccc2)cc1	·	2	4	13	·	1	i	-2
CC1(C)CC(=O)C(C=Nc2ccc(Cl)cn2)=C(O)C1	0	5	6	-23	-19	-7	i	-6
COCCn1cnc2c1c(=O)n(CC(=O)OCC(=O)NCCCc1ccccc1)c(=O)n2Cc1ccccc1	-6	-1	0	-8	·	-2	i	-12
COc1ccc(-c2[nH]ncc2CN(CCO)Cc2cccs2)c(F)c1	-10	-4	-2	7	1	2	i	1
Cc1nc2c(C(=O)NCc3ccc(F)cc3)c[nH]n2c(=O)c1Cl	-8	4	4	·	-14	7	i	-3

Screening results as filed in PubChem.
